miR-21 FLuc – raises the signal of a miR-21 reporter | HeLa miR-21 FLuc reporter, luciferase, 48 h | Potency, µM (top dose mostly 38.3 µM), for inactives: at the highest dose reporter change, positive = more light | 340,000 tested, under 10 active; active = well fitted rising curve with a large enough effect; inconclusive = small, poorly fitted or top-dose-only effect; inactive = no such curve, though single readings can be large or run the other way;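 note: % of control where 0% means no effect; miR-21 action dims this reporter so a rising signal means less miR-21 action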
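Luminescence from a firefly luciferase reporter carrying a miR-21 binding site downstream, stably expressed under a CMV promoter in HeLa cells that make miR-21 endogenously, reports miRNA modulation after 48 h compound exposure up to approximately 40uM final.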
Rango dissoc inh – inhibitors of RanGTP-induced Rango-importin beta complex dissociation. Biochemical FRET Rango-importin beta, RanGTP-induced dissociation. Potency, µM (titrated, usually from 46.1 µM), for inactives: at the top dose activity change, negative = inhibition. 340,000 tested, 0.071% active; active means falling FRET ratio curve, often poorly fitted, with flat reads before Ran was added; inconclusive means other falling curves, or compound fluorescence or quenching; inactive means flat or rising ratio curve;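 note: potency is the fitted concentration of half-maximal effect; % of control where 0% means no effect; nearly all actives have a fitted effect of over 45% in size; -100% = wells without RanGTP and RCC1; the record marks most hits as doubtful in a second field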
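Rango (0.1 uM)–importin beta (0.25 uM) complex; RanGTP-RCC1 trigger; 45 min RT; CFP/YFP FRET read.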
Rango complex inh – inhibitors of Rango-importin beta complex formation | Potency, µM (highest dose often 92.2 µM), for inactives: at the highest dose inhibition of complex formation | 340,000 tested, 0.031% active | Rango CFP/YFP FRET sensor + importin beta, 45 min; active = rising FRET ratio curve, often small or poorly fitted; inconclusive = mostly compound fluorescence or quenching in the first reads; inactive = flat curves in all reads;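 note: potency is the fitted concentration of half-maximal effect; 0% = DMSO wells and 100% = buffer wells lacking importin beta; nearly all actives have a fitted effect of over 15% in size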
Target sequence (Q14974 whole entry, looked up): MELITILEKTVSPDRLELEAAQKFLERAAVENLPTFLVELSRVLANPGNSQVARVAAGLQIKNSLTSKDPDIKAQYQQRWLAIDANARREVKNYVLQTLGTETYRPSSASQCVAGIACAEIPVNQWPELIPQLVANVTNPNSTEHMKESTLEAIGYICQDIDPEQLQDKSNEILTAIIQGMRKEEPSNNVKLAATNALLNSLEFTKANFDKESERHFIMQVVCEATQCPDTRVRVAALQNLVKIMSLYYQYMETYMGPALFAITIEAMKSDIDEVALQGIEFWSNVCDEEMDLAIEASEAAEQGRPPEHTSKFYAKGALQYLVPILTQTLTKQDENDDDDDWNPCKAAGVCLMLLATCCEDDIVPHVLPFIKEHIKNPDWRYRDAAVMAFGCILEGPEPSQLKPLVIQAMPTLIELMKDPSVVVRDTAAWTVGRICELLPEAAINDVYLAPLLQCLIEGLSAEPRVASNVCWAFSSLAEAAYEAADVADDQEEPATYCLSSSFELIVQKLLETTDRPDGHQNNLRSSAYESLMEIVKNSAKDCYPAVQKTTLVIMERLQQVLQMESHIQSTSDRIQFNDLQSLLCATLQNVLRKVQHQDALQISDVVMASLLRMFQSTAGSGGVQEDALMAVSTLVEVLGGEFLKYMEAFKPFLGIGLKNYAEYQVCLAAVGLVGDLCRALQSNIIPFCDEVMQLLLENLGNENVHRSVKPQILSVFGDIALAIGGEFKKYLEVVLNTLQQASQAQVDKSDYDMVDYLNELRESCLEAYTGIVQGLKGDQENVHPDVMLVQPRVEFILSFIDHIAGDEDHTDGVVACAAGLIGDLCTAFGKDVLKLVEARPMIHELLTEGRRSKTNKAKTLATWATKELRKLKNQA
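Inhibition scored from the CFP 486 nm/YFP 530 nm FRET ratio 45 min after adding 0.125 microM importin beta to 50 nM Rango biosensor preincubated 5 min with compound (room temperature, PBS with DTT, Tween-20, BSA). No-importin wells as positive control.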
GLA inh pH 4.5 – alpha-galactosidase A (human) inhibition, pH 4.5; P06280; purified enzyme, 4-MU-alpha-Gal fluorescence, pH 4.5; activity change, negative = inhibition, % at 105 µM; 230,000 tested, under 10 active; inconclusive = small, poorly fitted or top-dose-only inhibition, or a rising curve; inactive = flat fitted curve, though single readings scatter; no compound was filed as active;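 note: 0% = full activity with enzyme and -100% = basal without enzyme; dose as in the result columns while the protocol names 77 µM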
An asterisk follows results filed as active; ? = inconclusive; · = not tested or not shown; & = joins results of further samples.

miR-21 FLuc	Rango dissoc inh	Rango complex inh	GLA inh pH 4.5	structure
-27%	-23%	4.1%	-2	COCCCN=C(c1ccco1)n1c(=S)nc(-c2ccco2)n(CCCOC)c1=S
·	0%	7.1%	·	O=C(COC(=O)/C=C/c1ccc(OC(F)F)cc1)NC1CCCCC1
4%	-10%	-1.8%	-4	COC(=O)c1cc(=O)n(Cc2cccs2)c(=Nc2ccc(F)cc2)s1
1%	10%	-0.2%	·	CCCC(C)NC(=O)C1CC(=O)N(CCc2ccc(F)cc2)C1 (centres undefined)
-4%	-13%	5.9%	-3	Cc1ccnc(NC(=O)c2ccco2)n1
-4%	-17%	1.4%	0	Cc1nc2ccc(S(=O)(=O)NCC(=O)N3CCC(N4CCCCC4)CC3)cc2s1
-1%	0%	-0.1%	7	COc1ccc(NC(=O)N2CCN(S(C)(=O)=O)CC2)cc1
0%	-13%	0.1%	·	CCOC(=O)C1=C(CS(=O)(=O)c2ccc(F)cc2)NC(=O)NC1c1ccc(O)c(O)c1 (centres undefined)
-1%	20%	-0.6%	4	Cc1ccsc1CNC1C2CC3CC(C2)CC1C3 (centres undefined)
29%	0%	2.2%	-2	O=C(CCCN1C(=O)/C(=C/c2ccccc2Cl)SC1=S)NNC(=O)c1ccncc1
·	-17%	-0.9%	·	CCCCN(C(=O)CSc1nnc(-c2ccc(Cl)cc2)o1)c1c(N)n(CC(C)C)c(=O)[nH]c1=O
-16%	21%	-0.5%	4	C/C(=N\NC(=O)c1ccc(CSc2nncn2C)cc1)c1ccc(C#N)cc1
3%	?	?	·	COc1ccccc1C1C(C(=O)c2ccc(C)o2)=C(O)C(=O)N1c1cc(C)on1 (centres undefined)
13%	-9%	2.2%	-4	COc1ccc(CC(=O)NCC(=O)N/N=C/c2cc(Br)ccc2OC)cc1
-4%	0%	-0.2%	·	O=C(O)c1ccc(NS(=O)(=O)c2cccc(C(=O)Nc3ccc([N+](=O)[O-])cc3)c2)cc1
12%	0%	4.6%	·	COc1cccc(C(C(=O)NC(C)(C)C)N(Cc2ccc(F)cc2)C(=O)CCC(=O)Nc2cc(C)on2)c1OC (centres undefined)
-1%	-4%	-0.3%	-9	C(=N\n1cnnc1)/C1CCCCC1
·	12%	0.2%	·	O=C(C[C@@H]1C/C=C\CCC(=O)O[C@H](c2ccccc2)CNC1=O)N[C@H](CO)Cc1ccccc1
-2%	?	?	-10	O=C1NC(=S)N/C1=C/c1cc([N+](=O)[O-])ccc1O
3%	-8%	-1.3%	-4	O=C(Cc1ccccc1)N1CCNCC1
-4%	8%	-2.5%	1	COc1cccc(/C=N/NC(=O)c2ccccc2)c1OS(=O)(=O)c1ccccc1
-1%	3%	-5.5%	11	Cc1c(C(N)=O)sc2ncn(CC(=O)NCCc3ccccc3)c(=O)c12
·	2%	-1.1%	·	Cc1cccc(C(=O)NCC(=O)OC(C)C(=O)Nc2ccc(Cl)cn2)c1 (centres undefined)
-17%	4%	3.2%	·	CCOc1ccc(NC(=O)COc2ccc3c(c2)OCO3)cc1
-28%	2%	2.0%	2	Cc1ccc(O)c(/C=N/NC(=O)c2[nH]ncc2Br)c1
·	4%	1.0%	·	CSc1ccccc1NC(=O)c1cnc2sc(C)cn2c1=O
7%	16%	1.3%	·	Cc1cc(C(=O)N/N=C/c2ccc([N+](=O)[O-])s2)c2ccccc2n1
8%	19%	0.7%	·	C[n+]1cccc(C(=O)N/N=C/c2ccc3c(c2)OCO3)c1
-3%	-6%	-0.8%	·	CN1CCN(C(=O)c2cccn(Cc3cccc(Cl)c3)c2=O)CC1
-6%	-16%	-0.5%	3	CCOC(=O)Cc1csc(NC(=O)CCSc2ccccc2)n1
-6%	0%	1.1%	7	Cn1c(=O)c2c(nc(CN3CCN(c4ccccc4)CC3)n2Cc2c(F)cccc2Cl)n(C)c1=O
0%	16%	2.0%	-30	CS(=O)(=O)N1Cc2ccccc2CC1C(=O)O (centres undefined)
-8%	-10%	-3.8%	11	CC(=O)Nc1cccc(/C(C)=N/NC(=O)c2ccccc2Cl)c1
-2%	0%	0.5%	0	Cc1cccc(NC(=S)NC2CC3CCCC(C2)N3Cc2ccccc2)c1C (centres undefined)
-23%	?	2.0%	·	O=C(NNC(=O)c1ccccc1F)c1ccco1
0%	2%	0.4%	-3	O=C(CN1N=C(c2ccc(Cl)cc2)CCC1=O)NCCN1CCc2ccccc2C1
3%	-13%	-1.5%	-17	CCn1c(O)c(N=NC2=NC(=O)CS2)c2cc(C)ccc21
14%	-2%	1.2%	·	CC(C)CC(=O)Nc1nc(-c2ccc(S(=O)(=O)N3CCOCC3)cc2)cs1
-5%	3%	-0.1%	·	CCn1c2ccccc2c2n[nH]c(=S)nc21
-10%	2%&0%	-2.3%&0.1%	·	Cc1ccc2c(c1)c1c3n2CCNC3CCC1 (centres undefined)
10%	-7%	-2.3%	·	O=C(c1ccccc1Cl)N1CCN(Cc2ccc3c(c2)OCO3)CC1
-6%	-9%	0.3%	1	Cc1cccc(-n2ccnc2CN2CCC(CO)(Cc3ccccc3)CC2)c1
-3%	1%	4.4%	7	Cc1noc(C)c1C(=O)NCc1ccccc1
?	3%	-1.7%	-8	Cn1c(SCC(=O)N/N=C/c2ccc([N+](=O)[O-])s2)nnc1-c1ccccc1
-8%	1%	0.0%	2	CCn1c(O)c(/C=C2\C=NN=C2c2ccccc2)sc1=S

Looked up one by one from the entries so far:
miR-21 FLuc	Rango dissoc inh	Rango complex inh	GLA inh pH 4.5	structure
-5%	3%	-0.1%	·	CCn1c2ccccc2c2n[nH]c(=S)nc21
0%	16%	2.0%	-30	CS(=O)(=O)N1Cc2ccccc2CC1C(=O)O (centres undefined)
14%	-2%	1.2%	·	CC(C)CC(=O)Nc1nc(-c2ccc(S(=O)(=O)N3CCOCC3)cc2)cs1
-10%	2%&0%	-2.3%&0.1%	·	Cc1ccc2c(c1)c1c3n2CCNC3CCC1 (centres undefined)
-6%	0%	1.1%	7	Cn1c(=O)c2c(nc(CN3CCN(c4ccccc4)CC3)n2Cc2c(F)cccc2Cl)n(C)c1=O
?	3%	-1.7%	-8	Cn1c(SCC(=O)N/N=C/c2ccc([N+](=O)[O-])s2)nnc1-c1ccccc1
-3%	1%	4.4%	7	Cc1noc(C)c1C(=O)NCc1ccccc1

Entries above containing a nitro group on carbon (four):
miR-21 FLuc	Rango dissoc inh	Rango complex inh	GLA inh pH 4.5	structure
-4%	0%	-0.2%	·	O=C(O)c1ccc(NS(=O)(=O)c2cccc(C(=O)Nc3ccc([N+](=O)[O-])cc3)c2)cc1
-2%	?	?	-10	O=C1NC(=S)N/C1=C/c1cc([N+](=O)[O-])ccc1O
7%	16%	1.3%	·	Cc1cc(C(=O)N/N=C/c2ccc([N+](=O)[O-])s2)c2ccccc2n1
?	3%	-1.7%	-8	Cn1c(SCC(=O)N/N=C/c2ccc([N+](=O)[O-])s2)nnc1-c1ccccc1

(list continues)
miR-21 FLuc	Rango dissoc inh	Rango complex inh	GLA inh pH 4.5	structure
1%	1%	-2.1%	1	COc1ccccc1N(CC(N)=O)S(=O)(=O)c1ccc(C)cc1
-1%	2%	0.3%	1	COc1cccc(C(=O)N2CCN(C3CCC(c4ccccc4)CC3)CC2)c1OC (centres undefined)
-7%	1%	-1.5%	-12	O=C(OCCN1CCCCC1)c1cc2ccccc2o1
-1%	0%	-0.8%	-1	COc1cc(CNCCSc2nnnn2C)cc(Br)c1OCc1ccccc1F
-22%	0%	-2.3%	·	Cc1c(C(=O)N2CCN(c3ccccc3)CC2)oc2c(F)cccc12
·	16%	1.7%	·	O=C(Nc1cccc(C(=O)N2CCCC2)c1)C1CCCC1
-8%	-9%	0.2%	-7	Cc1cnc(C)c(N2CCN(Cc3nc(-c4ccccc4)no3)CC2)n1
-17%	15%	0.5%	·	CCOc1ccc(C2NCCc3cc(OC)c(OC)cc32)cc1OC (centres undefined)
-6%	0%	0.9%	-2	O=C(NCCCc1ccccc1)N1CCOCC1
·	-16%	0.3%	·	CN(C(=O)c1ccccc1C(=O)OCC(=O)c1ccc(F)c(F)c1)C1CCCCC1
·	-5%	4.8%	·	COc1ccccc1OCC(=O)Nc1ccccc1C(=O)NC1CC1
·	-1%	-0.2%	·	Cc1cc(NS(=O)(=O)c2ccc(Br)s2)no1
-1%	-8%	-2.7%	0	O=C(NCCc1ccccn1)C(F)(F)C(F)(F)C(F)(F)C(F)(F)C(F)(F)C(F)(F)C(F)(F)C(F)F
-16%	-7%	-0.3%	-9	O=C(NCc1ccco1)c1nnc(Cc2ccc(Cl)cc2)o1
0%	-7%	4.5%	·	COc1ccc(N2CCN(C(=O)CS(=O)Cc3nc(-c4ccc(OC)c(OC)c4)oc3C)CC2)cc1 (centres undefined)
-1%	-5%	5.8%	12	CCOc1ccc(NC(=O)c2ccc(NC(=S)NC3CCCCC3)cc2)cc1
·	1%	-5.5%	·	O=C(O)c1cccc(-c2ccccc2)c1O
-4%	24%	-2.8%	-5	CCNC(=S)N/N=C/c1ccccc1[N+](=O)[O-]
2%	-13%	0.6%	·	CC(=O)Nc1cccc(C(=O)NC2CCCc3c2cnn3-c2ccccc2F)c1 (centres undefined)
-2%	-5%	-1.9%	0	CCn1cc(C(=O)OCC(=O)Nc2cccc(Cl)c2Cl)c(=O)c2ccc(C)nc21
-17%	-3%	1.6%	?	Cc1cc(N2CCC(C)CC2)nc2ccc(N3C(=O)CCC3=O)cc12
0%	18%	-0.8%	5	CCOC(=O)N1CCN(c2c(NCCN(C)Cc3ccccc3)c(=O)c2=O)CC1
?	-12%	2.0%	-15	COc1cccc(/C=N/NC(N)=S)c1OCc1cccc(Cl)c1
·	-19%	-3.3%	·	CCOc1ccc(OCCC(=O)N2CCN(S(=O)(=O)c3ccc(F)cc3)CC2)cc1
·	-10%	3.0%	·	Cn1nc(C(=O)OCC(=O)Nc2ccc(Cl)cc2Cl)c2ccccc2c1=O
-2%	1%	2.4%	0	COC(=O)c1cccc(NC(=O)CC2C(=O)NCCN2C(=O)c2ccc(F)cc2F)c1 (centres undefined)
·	-5%	-0.1%	·	CC(=O)Nc1ccc(S(=O)(=O)NCC(=O)OCC(=O)NCc2ccc3c(c2)OCO3)cc1
12%	5%	1.7%	6	CN(C(=O)c1ccc(=O)n(Cc2ccc(Cl)cc2)c1)c1ccccc1
·	-5%	3.5%	·	COc1ccccc1C(=O)NCC(=O)NCCC(c1ccccc1)c1ccccc1
-3%	-12%	-2.6%	7	CN(Cc1ccon1)C(=O)CC1C(=O)NCCN1Cc1cccc(Oc2ccccc2)c1 (centres undefined)
·	1%	-0.4%	·	C[C@@H]1C(=O)OC[C@H]1NC(=O)OCc1ccccc1
-4%	·	·	-1	O=C(O)/C=C/C(=O)Nc1ccc(Oc2ccc(NC(=O)/C=C/C(=O)O)cc2)cc1
-7%	-3%	-4.4%	-6	CCOC(=O)c1c(-c2ccc(C)o2)csc1NC(=O)CN1CCCCC1
2%	12%	2.0%	·	CN=C(NC1CCCCC1)c1ccc([N+](=O)[O-])cc1
-9%	-5%	7.6%	-7	O=C(Cc1c(F)cccc1Cl)c1ccc(O)cc1O
-5%	?	1.6%	-6	CCOCCCN(Cc1cc2cc(C)cc(C)c2[nH]c1=O)C(=O)N(CC)CC
-11%	2%	3.8%	7	COc1ccc(/C=C/C(=O)Nc2cc(S(=O)(=O)N3CCOCC3)ccc2N2CCCC2)cc1OC
8%	5%	0.8%	·	COc1cccc(N2CCN(C(=O)c3oc4ccccc4c3NC(=O)Cc3ccc(OC)c(OC)c3)CC2)c1

Only part of the results is shown; the hit share may differ from the screen's.
